Assay outcomes from PubChem.
NPYLR7 agonist – activates Aedes aegypti NPYLR7 receptor | HEK293T NPYLR7/Galpha15, GCaMP6s calcium fluorescence | activation, % at 10 µM | hit rate 0.15% among 270,000; in the data active = activation above about 40%;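 note: 0% = vehicle and 100% = reference agonist at the receptor; some compounds past the cut are filed as inactive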
NPYLR7 agonist max-min – also measured in NPYLR7 agonist; calls as there; activation, %; measured here: Max-Min RFU normalised activation; some inactives read as strong as hits;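 span of the calcium signal over five minutes; 0% = vehicle and 100% = native peptide agonist; compound fluorescence can raise it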
An asterisk follows results filed as active; & = joins results of further samples. Not all compounds are listed, so the mix of outcomes need not match the whole.

SMILES	NPYLR7 agonist	NPYLR7 agonist max-min
Cn1cnnc1SCC(=O)N1CCCC(C(=O)c2ccc(-c3ccccc3)cc2)C1 (stereo not given)	4&-2	2&-1
CSc1ccc(C(=O)CCC(=O)N2CCCCC2)cc1	5	2
N#Cc1cc(NS(=O)(=O)c2cc(F)ccc2F)ccc1Cl	5	0
CC(C)NC(=O)NCc1ccc(C(=O)OCC(=O)N2CCOC(C)C2)cc1 (stereo not given)	-1	0
Cc1cc(C)n(-c2ccc(C(=O)NCCCN3CCOCC3)cc2)n1	18	13
CCOC(=O)c1cc(-c2ccc(N3CCN(C(=O)Cc4ccc(OC)cc4)CC3)cc2)n(-c2ccccn2)n1	5	-1
CNC(=O)c1ccccc1OCCCc1ccccc1C	9	19
CC1Cc2c(NC(=O)c3ccc(Br)o3)nn(C)c2NC1=O (stereo not given)	-16	-22
COc1ccccc1CN(CCN1CCOCC1)Cc1nc(C(=O)NCc2ccccn2)co1	18	12
Cc1onc(-c2ccccc2)c1CNC(=O)c1cncn1-c1ccc(-c2ccc(F)c(F)c2)cc1	4	4
COc1cc(/C=C\C(=O)Nc2c3c(nn2-c2cccc(Cl)c2)CSC3)cc(OC)c1OC	-2	-5
CCN(CC(C)(C)O)C(=O)NCC1CCOC1C(C)(C)C (stereo not given)	1	0
C#CCOCC(O)CN(CC(=O)N1CCc2sccc2C1COc1ccccc1F)CC1CC1 (stereo not given)	4	3
C=CCCC(O)CN(Cc1ccc2c(c1)OCO2)Cc1cccc(OC)c1OC (stereo not given)	-3	3
Cc1ccccc1-c1cc(C2CCN(Cc3cnn(C)c3C3CC3)C2)ccn1 (stereo not given)	1	-1
Cc1cc(N)n(/N=C\c2cc(C)c(O)c(C)c2)c(=O)c1	5	3
CCCOc1ccccc1NS(=O)(=O)c1ccc(S(N)(=O)=O)cc1	10	11
CC(Oc1cccc(C#N)c1)C(=O)NC1CCCC1 (stereo not given)	0	-1
CN(Cc1ccc(C(F)(F)F)cc1)Cn1nc(-c2cccnc2)n(C2CC2)c1=S	3	0
O=C1C2C3CC(C(Br)C3Br)C2C(=O)N1c1cc(Cl)cc(Cl)c1 (stereo not given)	-4	-9
CCC(C)Nc1cnc2c(c1)c(NC(C)=O)c(C(=O)OC)n2CC1CCCO1 (stereo not given)	11	2
O=C(NCc1ccccn1)C(C1CCCC1)N1CCN(C(=O)c2cc(F)cc(F)c2)CC1 (stereo not given)	-2	3
CCCN(CCC)Cc1cn2c(-c3ccc(OC)cc3)nnc2s1	1	38
N#CCSc1cc(C(=O)NC2CC2)c2ccccc2n1	5	-1
CN(C)C=Nc1c(C#N)cnn1-c1ccccc1	13	11
CCOC(=O)N1CCN(Cc2nc3c(c(=O)n(C)c(=O)n3C)n2CC)CC1	5	22
O=C(Nc1ccnn1C1CCN(Cc2cccc3cccnc23)CC1)C1CC1	19&0	8&-3
Cc1ccc(C(NC(=O)c2ncn[nH]2)c2cccnc2)c(C)c1 (stereo not given)	-3	-3
CCC(CC)C(=O)N(C)c1c(C)nc2ccc(C(=O)NCCCn3ccnc3)cn12	-2	1
Cc1cccc(-n2c(C3CC3)n[nH]c2=S)c1	-4	1
CCOC(=O)C1=C(C)N=c2s/c(=C\c3c(F)cccc3Cl)c(=O)n2C1c1ccccc1F (stereo not given)	-5	-3
CCCNC(=O)Cn1nc(-c2cccs2)c2sc(C)nc2c1=O	1	-2
CC(C)(C)Cc1nc(-c2ccc(C(=O)O)cc2)no1	-4	-6
COc1ccc(S(=O)(=O)Oc2ccc(Cl)cc2CN(C(=O)c2cccc(F)c2)C(C)C)cc1	-4	11
CCCCC(CC)CNC(=O)c1cnc2c(-c3ccc4c(c3)OCO4)cnn2c1C (stereo not given)	14	4
Cc1c(F)cccc1NC(=O)N1CCN(c2cc(-n3cccn3)ncn2)CC1	-3	-9
CCOC(=O)C1(C)CCN1C(=O)c1ccc(C(=O)OC)cc1 (stereo not given)	-3	-2
CCCNC(=O)C(NC(=O)c1cccc(C)c1)C1CCN(C(=O)C2CCCC2)CC1 (stereo not given)	6	5
CC(=CC(=O)NCCS(N)(=O)=O)C12CC3CC(CC(C3)C1)C2	6	4
NC(=O)C1(NC(=O)/C=C/c2csc(Br)c2)CCCC1	-2	19
O=C(NCc1ccncc1)c1csc(COc2cccc(C(F)(F)F)c2)n1	16	26
CC(C)Oc1ccccc1C1CC(=O)Nc2c1cc(Br)c1ccccc21 (stereo not given)	-1	3
CCOC(=O)C1CCN(C(=O)c2cc(-c3ccc(Cl)cc3)n(-c3ccccc3C)c2C)CC1	-9	-10
CNC(=O)c1ccc(Cn2cnc(-c3ccccc3)c2-c2ccccn2)o1	-1	-1
COCc1cccc(NS(=O)(=O)c2cc(C(=O)O)c(F)cc2Cl)c1	5	3
O=C(CSc1nnc(NC(=O)c2ccco2)s1)Nc1ccccc1C(F)(F)F	-7	0
COc1cccc(N2CCN(S(=O)(=O)c3ccc(Cl)cc3C(F)(F)F)CC2)c1	5	3
Cc1noc(C)c1S(=O)(=O)NCC(=O)O	8	12
CN1C(=O)/C(=C2\SC(=S)N(NC(=O)c3ccccc3)C2=O)c2cc(Br)ccc21	11	13
CSc1ccccc1C(=O)NCc1c(C)ncc2c1CCN(C(=O)c1coc3c1C(=O)CCC3)C2	23	9
CCOc1ccc(Nc2ccc(C(=O)NC3CC3)cn2)cc1	6	2
O=C(COc1ccccc1)NCC1COc2ccccc2O1 (stereo not given)	14	4
CCc1cn[nH]c1C1CCCN(C(=O)C(=O)Nc2cccc(F)c2)C1 (stereo not given)	5	-1
Cc1ccccc1OCC(=O)N1CCOC(c2ccccc2)C1 (stereo not given)	20	24
CCOC(=O)c1ccc(N2C(=O)CC(N3CCN(C(=O)OCC)CC3)C2=O)cc1 (stereo not given)	3	0
COc1cccc(C(NC(=O)c2cnc[nH]2)c2cccc(OC)c2)c1	4	1
Cc1ccc(CSc2nc3c(c(=O)n2-c2ccccc2)SCC3)cc1	0	0
COCCN(C(=O)CCc1nnc(-c2ccc3c(c2)OCO3)o1)C(C)C	1	-4
Cc1ccccc1-c1ncc(CN(C)Cc2n[nH]c3c2CCC3)s1	3	1
Cc1c(-c2cnccn2)ssc1=S	-3	-4

Single records, from the list above. Screens in order: NPYLR7 agonist	NPYLR7 agonist max-min
Profile of N#Cc1cc(NS(=O)(=O)c2cc(F)ccc2F)ccc1Cl → 5	0
Profile of CCOC(=O)C1CCN(C(=O)c2cc(-c3ccc(Cl)cc3)n(-c3ccccc3C)c2C)CC1 → -9	-10
Profile of O=C(CSc1nnc(NC(=O)c2ccco2)s1)Nc1ccccc1C(F)(F)F → -7	0

Next structures follow:
SMILES	NPYLR7 agonist	NPYLR7 agonist max-min
Cc1nnc(SCC(C)C)[nH]c1=O	0	7
CCc1c(C)nc(-n2nc(C)cc2NC(=O)C23CC4CC(CC(C4)C2)C3)[nH]c1=O	7	1
O=C(C1CC1)N1CCN(Cn2nc3c(c(C(F)(F)F)c2=O)CCC3)CC1	5	4
CCCCN=C1SCC(c2ccc(C)c([N+](=O)[O-])c2)=NN1C	6	4
c1ccc2nc(N3CCOCC3)c(-c3nccn3CCn3cccn3)cc2c1	-9	-14
COc1cccc(OC)c1C(=O)Nc1ccc2c(c1)C(=O)N(C)CCO2	6	1
O=C(NC(=S)Nc1cc(Cl)c(Cl)cc1Cl)C1CC1	1	0
Cc1ccc2[nH]cc(-c3ccc4cc[nH]c(=O)c4c3)c2c1	1	-2
c1ccc(CCc2nc(C3[C@@H]4[C@H]5CC[C@H](C5)[C@H]34)n[nH]2)cc1 (stereo not given in full)	23	16
CNC(=O)c1cc(Oc2ccc(NC(=O)Nc3ccc(Cl)c(C(F)(F)F)c3)cc2)ccn1	-19	-30
Nn1c(-c2cc(Br)ccc2F)n[nH]c1=S	0	20
CN(CCC(O)c1ccccc1)C(=O)C1C[C@@H]2CC[C@H]1C2 (stereo not given in full)	3	1
CCOC(=O)c1nn(-c2ccccc2)c(=O)cc1OCC(=O)Nc1ccc(C)cc1C	12	9
O=C(CC1OCCc2ccccc21)NCc1cccc2cccnc12 (stereo not given)	0	-2
Cc1cc(N2CCCC2)nc(SCc2ccc(C(=O)NCc3ccncc3)cc2)n1	22	19

Pulled by structure from above, 3 records:
SMILES	NPYLR7 agonist	NPYLR7 agonist max-min
CNC(=O)c1cc(Oc2ccc(NC(=O)Nc3ccc(Cl)c(C(F)(F)F)c3)cc2)ccn1	-19	-30
Nn1c(-c2cc(Br)ccc2F)n[nH]c1=S	0	20
COc1cccc(OC)c1C(=O)Nc1ccc2c(c1)C(=O)N(C)CCO2	6	1

(continued)
SMILES	NPYLR7 agonist	NPYLR7 agonist max-min
Cc1c(C(=O)NCC2CC2)sc(=O)n1Cc1ccccc1	2	0
CCCc1nc2cccnc2n1C1CCN(C(=O)CC2C(=O)Nc3cc(OC)ccc32)CC1 (stereo not given)	8	4
CC(NS(=O)(=O)c1ccc(Br)cc1)c1ccccc1OC(F)F (stereo not given)	6	3
CC(C)c1nc(CCN(C)C(=O)c2ccc(Cl)cn2)no1	-1	-2
CC1CCCN(C(=O)NCCc2nccn2C(F)F)C1 (stereo not given)	12	6
CCOc1ccc2ccccc2c1C(=O)Nc1c2c(nn1C(C)(C)C)CS(=O)C2 (stereo not given)	-3	-2
CCOC(=O)C1CCN(CC(=O)N2N=C(c3ccc(F)cc3)CC2c2ccccc2Cl)CC1 (stereo not given)	8	8
Cc1ccccc1-c1noc(CN(C)Cc2cc(C(C)(C)C)n[nH]2)n1	15	14
Cc1ccc(CC(=O)Nc2ccc(F)cc2CS(C)(=O)=O)cc1	1	-2
COc1ccc(/C=C2\C(=N)N3N=C(C45CC6CC(CC(C6)C4)C5)SC3=NC2=O)cc1OC	0	0
CCc1ccc(S(=O)(=O)Nc2ccc(Nc3cc(-n4ccnc4)nc(C)n3)cc2)cc1	-11	-17
COc1ccc(NC(=O)c2ccc(-c3ccc(C(C)=O)cc3)o2)cn1	6	3
COCCN1C(=O)N(C2Cc3ccccc3C2)C(=O)C12CCN(C/C(C)=C/c1ccco1)CC2	8	-4
Cc1cnc(NC(=O)C=Cc2ccco2)s1	5	2
O=C(CSc1nc(=O)n(Cc2cccnc2)c2c1CCC2)Nc1ccccc1F	-4	-5

In a second layout: 5 of the compounds above.
Second line of a record – NPYLR7 agonist, NPYLR7 agonist max-min
COc1cccc(C(NC(=O)c2cnc[nH]2)c2cccc(OC)c2)c1
 : 4, 1
Cc1ccc(CSc2nc3c(c(=O)n2-c2ccccc2)SCC3)cc1
 : 0, 0
COCCN(C(=O)CCc1nnc(-c2ccc3c(c2)OCO3)o1)C(C)C
 : 1, -4
Cc1ccccc1-c1ncc(CN(C)Cc2n[nH]c3c2CCC3)s1
 : 3, 1
Cc1c(-c2cnccn2)ssc1=S
 : -3, -4

Carrying on.
SMILES	NPYLR7 agonist	NPYLR7 agonist max-min
CC(=O)N1CCc2c(sc(N)c2-c2nc3ccccc3s2)C1	1	-1
O=S(=O)(Nc1nc2ccccc2nc1Nc1ccccc1F)c1ccccc1	8	1
O=C1CCc2nc3sc4c(c3c(=O)n2N1)CCCC4	1	-1
Cc1ncsc1C(=O)Nc1n[nH]c(-c2ccc(F)cc2)n1	1	2
C=CCN1CC(c2nc3ccccc3n2CCOc2c(C)cccc2C)CC1=O (stereo not given)	4	10
COC(=O)c1ccc(F)cc1NC(=O)CC1CCCCN1C(C)=O (stereo not given)	6	2
CCn1nnc2c(N3CCC(Cc4ccccc4)CC3)ncnc21	11	5
O=C(Cn1cc(OCc2ccc(F)cc2)c(=O)cc1CO)N1CCc2ccccc21	2	1
O=C1CN(c2ccc(O)cc2)C(=O)N1	5	1
O=C(CCC(=O)N1CCCC1c1nnc2c(C(F)(F)F)cccn12)c1ccc(F)cc1 (stereo not given)	-11	-13
CC(=O)c1c(C)n(-c2ccc(C)cc2)c2ccc(O)cc12	-4	-7
Cc1ccc(C)c(COc2coc(CN3CCc4ccccc43)cc2=O)c1	1	2
COCCN(Cc1ccsc1)Cc1ccc(C(O)(c2cccc(F)c2)c2cccc(F)c2)o1	-10	-5
COc1ccccc1-n1nc(C(C)C)nc1CSc1ccncc1	16	9
CC(=O)Nc1ccc(CC2CCN(S(=O)(=O)c3ccc(F)c(Cl)c3)CC2)cc1	0	7
Nc1ccc2nsnc2c1N	17	14
COC(=O)c1ccc(COC(CN2CCN(C(=O)NC3CCCCC3)CC2)c2cccc(OC)c2)cc1 (stereo not given)	-10	-1
COc1ccc(CC2CCN(C(=O)Nc3ccc(F)cc3)CC2)cc1	6	6
CC(C)(C)c1cc(N2CCC(OC3CCOCC3)CC2)nc(C(C)(C)C)n1	-3	47
O=C(C1CCN(S(=O)(=O)c2ccc3ccccc3c2)CC1)N1CCC(CCc2ccccc2)CC1	6	1
CSc1nnc2c(n1)OC(C1CC=C(C)CC1C)Nc1ccccc1-2 (stereo not given)	4	3
O=C(Nc1cccc2ccccc12)c1cc2nc(-c3ccc(Br)cc3)cc(C(F)(F)F)n2n1	-10	-23
O=C(Nc1ccc(N2CCCCC2)cn1)c1cnccn1	10	4
CCOC(=O)c1cc(-c2ccc(N3CCN(C(=O)C(OC(C)=O)c4ccccc4)CC3)cc2)n(-c2ccc(F)cc2)n1 (stereo not given)	26	12
COCC(=O)N1CCN(c2ccc(C)cc2C)C(=O)C1C (stereo not given)	9	11
CCOC(=O)C1=C(C)NC2=C(C(=O)CC(c3ccccc3)C2)C1c1cc(Cl)c(O)c(OC)c1 (stereo not given)	-7	-10
O=C(Nc1cc(C(F)(F)F)cc(C(F)(F)F)c1)c1cccn(OCc2cccc(Cl)c2)c1=O	16	14
CC1(C)COCCN1CCS(=O)(=O)c1ccc(Br)cc1	4	3
